Assay outcomes: PubChem BioAssay, ICCB-Longwood Screening Facility, Harvard Medical School
Sa growth 42C – inhibitors of Staphylococcus aureus growth at 42 °C; 0.53% of 170,000 active; S. aureus RN4220 growth, OD600, 20 h; hits give low values; relative growth, % (test concentration not listed);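 active = growth at 42 °C up to 50% and 20 or more points under that at 30 °C, or under 10% at both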;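 note: 300 nL library stock went into each well; scaled to the means of positive and negative controls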
HCMV NEC inh – cytomegalovirus nuclear egress complex inhibition | HTRF UL50-UL53 interaction, normalized percent inhibition | inhibition, % (test concentration not listed) | 0.15% of 190,000 active;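 active = both replicates at 50% or more, plus weaker picks with an unusually low signal ratio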;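 note: stock transfer was 100 nL into about 20 µL; 0% = negative control wells and 100% = wells with untagged competitor protein; inactives centre near -12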
GIV-Gai inh – GIV-Galpha-i interaction inhibition; AID 1224905; P08753; Galpha-i3/FITC-GIV peptide fluorescence polarization, 90 min; hits give low values; scaled: aluminum fluoride 0%, vehicle 100%; 0.42% of 210,000 active; percent of control (FP), % (concentration not given with the values);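 active = replicate mean at 85% of control or lower, very high polarization wells dropped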;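 note: wells of about 15 µL received 100 nL stock; the first replicate is given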
Target sequence (P08753 whole entry, looked up): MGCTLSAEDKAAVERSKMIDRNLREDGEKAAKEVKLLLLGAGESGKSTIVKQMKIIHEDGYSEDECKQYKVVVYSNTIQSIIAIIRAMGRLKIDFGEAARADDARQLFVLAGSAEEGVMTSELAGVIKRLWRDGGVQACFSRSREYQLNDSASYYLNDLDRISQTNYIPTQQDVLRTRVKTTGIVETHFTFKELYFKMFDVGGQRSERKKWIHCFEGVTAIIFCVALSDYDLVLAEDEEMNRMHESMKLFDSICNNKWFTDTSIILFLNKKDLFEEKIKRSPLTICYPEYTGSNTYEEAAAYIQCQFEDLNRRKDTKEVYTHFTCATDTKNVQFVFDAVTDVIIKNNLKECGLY
Sa growth 42C second temp – recorded beside Sa growth 42C, whose call it bears; relative growth, %; measured here: growth at 30 °C;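 optical density after 20 h as mean of two plates; 100% = untreated growth and lower means inhibition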
Starred values were filed as active, the others as inactive; / = not tested or not shown; & = joins results of further samples. Hits appear at their usual frequency; any-hit rate near 0.79%.

SMILES | Sa growth 42C | Sa growth 42C second temp | HCMV NEC inh | GIV-Gai inh
Cc1cc(C)c(OCCn2ccnc2)c(C)c1 | 110 | 74 | -3 | 108
CCCNC(=O)Cn1c(=O)c2c(OC)c(C)cnc2n(C)c1=O | / | / | 6 | 102
O=C(Nc1ccc(F)cc1)c1csc2c1CCCCC2 | 92 | 90 | -4 | 103
CCCCOc1ccccc1C1CC(=O)Nc2ccc3ccccc3c21 (stereo unspecified) | 118 | 93 | -8 | 102
Cc1ccc(C)c(NC(=O)CN2C(=O)c3cccnc3Oc3ccc(C)cc32)c1 | 100 | 100 | / | 101
Cc1cc(Br)ccc1NC(=O)C1CCN(S(=O)(=O)c2ccc(Br)s2)CC1 | 92 | 89 | 33 | 100
Nc1ccc(CCC(=O)NC2CC2)cc1 | 88 | 101 | 12 | 104
O=C(NCc1ccc2c(c1)OCO2)C1(S(=O)(=O)c2ccc(Cl)cc2)CC1 | 104 | 90 | / | 102
O=C(O)c1cccc2cc[nH]c12 | 107 | 91 | -2 | 102
CCN(CC)c1ccc(NC(=O)CN(C)Cc2cccs2)cc1 | 95 | 96 | -6 | /

Laid out differently: two of the compounds above
O=C(NCc1ccc2c(c1)OCO2)C1(S(=O)(=O)c2ccc(Cl)cc2)CC1
  Sa growth 42C = 104	Sa growth 42C second temp = 90	HCMV NEC inh = /	GIV-Gai inh = 102
Cc1ccc(C)c(NC(=O)CN2C(=O)c3cccnc3Oc3ccc(C)cc32)c1
  Sa growth 42C = 100	Sa growth 42C second temp = 100	HCMV NEC inh = /	GIV-Gai inh = 101

Carrying on:
SMILES | Sa growth 42C | Sa growth 42C second temp | HCMV NEC inh | GIV-Gai inh
Cc1ccc2c(c1)c(=O)n(CCCOC(C)C)c1nnc(SCc3ccccc3C)n21 | / | / | 0 | 104
CC(C)(C)c1nnc2sc(COc3ccc(Br)cc3)nn12 | 82 | 85 | -18 | 102
c1nc(Nc2ccc3c(c2)OCO3)c2c3c(sc2n1)CCC3 | 86 | 93 | -38 | /
O=C(COC(=O)c1ccc2ccccc2n1)NC1CCCC1 | 113 | 89 | -40 | /
CC(C)OCCCNC(=O)c1cc2c(-c3ccc(Cl)cc3)nn(C)c2s1 | 108 | 91 | -6 | 102
Cc1cccc(N2CCN(C(=O)c3cc4c(=O)n(C)c5ccccc5c4s3)CC2C)c1 (stereo unspecified) | 95 | 82 | -32 | 100
CCC(C(=O)NCCCN1CCCC1=O)N1C(=O)CCCc2ccccc21 (stereo unspecified) | / | / | -3 | 109
O=C(O)C1CCN(C(=O)CSc2ncc(C(F)(F)F)cc2Cl)CC1 | 99 | 91 | -22 | /
O=C(Cc1cccc(C(F)(F)F)c1)Nc1ccccc1 | 117 | 83 | / | 99
c1coc(-c2cc(-c3nc4ccccc4s3)c3ccccc3n2)c1 | 47 | 17 | -17 | /
O=C(COn1nnc2ccc(Cl)cc21)NCc1ccco1 | 110 | 92 | 3 | /
CCn1ccc2cc(S(=O)(=O)N3CCCN(C(=O)NCC(=O)OC)CC3)ccc21 | 100 | 99 | / | 100
COc1ccc(CN2C(=O)CN(C)C2=S)cc1 | 84 | 85 | -60 | /
Cc1ccc(NC(=O)Cn2cc(/C=C3/NC(=O)NC3=O)c3ccccc32)cc1 | 99 | 75 | / | 98
CC1=C(c2ccc(F)cc2)S(=O)(=O)N(CC(=O)Nc2c(F)cc(F)cc2Br)C1=O | / | / | -7 | 99
Cc1cc(CN2CCN(c3ccc(F)cc3)CC2)cs1 | 100 | 89 | / | 104
CC(Oc1ccccc1C(C)C)C(=O)O (stereo unspecified) | 99 | 92 | -7 | 95
CCOc1ccc(Br)cc1C=Nc1ccc2c(c1)OCO2 | 95 | 88 | 1 | 104
CCOC(=O)C1C(=O)C=C(c2ccco2)CC1c1ccc(OC)cc1 (stereo unspecified) | 86 | 90 | -60 | 104
CC(C)(C)NC(=S)Nc1cc(C(F)(F)F)cc(C(F)(F)F)c1 | 113 | 108 | 18 | 108

6 entries out of the list above, sorted by their value in Sa growth 42C, highest first:
SMILES	Sa growth 42C
CC(C)(C)NC(=S)Nc1cc(C(F)(F)F)cc(C(F)(F)F)c1	113
O=C(COn1nnc2ccc(Cl)cc21)NCc1ccco1	110
Cc1cc(CN2CCN(c3ccc(F)cc3)CC2)cs1	100
CC(Oc1ccccc1C(C)C)C(=O)O (stereo unspecified)	99
CCOc1ccc(Br)cc1C=Nc1ccc2c(c1)OCO2	95
CCOC(=O)C1C(=O)C=C(c2ccco2)CC1c1ccc(OC)cc1 (stereo unspecified)	86

The list goes on:
SMILES | Sa growth 42C | Sa growth 42C second temp | HCMV NEC inh | GIV-Gai inh
O=C(CCCc1c[nH]c2ccccc12)Nc1ccccc1N1CCOCC1 | 89 | 94 | 14 | /
Cc1nc(SCC(=O)Nc2c(C)nn(C)c2C)c2cnn(-c3ccccc3)c2n1 | 137 | 65 | 2 | 97
Nc1cc(-c2n[nH]c(=S)o2)ccc1Cl | / | / | -7 | 103
COc1ccc(S(=O)(=O)c2c(Nc3cccc(C)c3C)sc(C(=O)c3ccccc3)c2N)cc1 | 99 | 79 | -17 | 106
Cc1ccc(Cn2c(CN3CCC(C(=O)NCC(C)c4ccccc4)CC3)cc3ccccc32)cc1 (stereo unspecified) | 131 | 97 | / | 107
O=C(COc1ccc(-c2nc(-c3ccccc3)no2)cc1)N1CCCC1 | / | / | -28 | 108
Cc1cc(C)n(CCC(=O)Nc2ccc(Cl)cc2)n1 | 96 | 89 | / | 102
CC(C)(CO)N1Cc2ccccc2C1=O | / | / | -11 | 99
CC(=O)Nc1ccc(NS(=O)(=O)c2cc3c4c(c2)CC(=O)N4CCC3)cc1 | 127 | 95 | / | 105
COc1ccc(CCNC(=O)c2ccn[nH]2)cc1OC | 89 | 79 | -8 | 99
COCc1cc(OC)nc(-c2csc(C)n2)n1 | 135 | 60 | 4 | 98
Cc1ccc(OCNC(=O)N2CCOCC2)cc1 | 93 | 84 | -30 | 98
c1ccc(-c2noc(-c3ccc(N4CCN(C5CCCCC5)CC4)nn3)n2)cc1 | / | / | -4 | 99
CC1CCCCN1c1ncccc1C(=O)NC1CCCC1 (stereo unspecified) | 78 | 86 | -23 | 99
O=C(CSc1nc2nccnc2c(=O)n1Cc1ccccc1)Nc1ccccc1C(F)(F)F | 102 | 86 | / | 108
O=S(=O)(NCCc1ccccn1)c1ccc2c(c1)OCCCO2 | 103 | 65 | -3 | 100
N#Cc1ccc(C(=O)OCc2ccccc2)cc1 | 108 | 89 | -35 | /
Cc1ccc(N2C(=O)c3cc4ccsc4n3CC2(C)C(=O)NC2CCCC2)c(C)c1 (stereo unspecified) | / | / | -29 | 103
Cn1c(=O)[nH]c(=O)c2c1nc(N1CCOCC1)n2CC(N)=O | / | / | -12 | 102
CCN(CC)C(=O)Cn1c(=O)c2ccccc2n2c(=S)sc(-c3ccc(Br)cc3)c12 | / | / | -29 | 100
Cc1nc(Nc2ccc(F)cc2)nc2c1ncn2-c1ccc(F)cc1 | / | / | -26 | 103
Cc1ccccc1-c1nc2scc(CCNC(=O)c3ccc(F)cc3)n2n1 | / | / | -4 | 97
O=C(Nc1cc2ccccc2s1)NC1Cc2ccccc2C1 | 95 | 91 | -8 | 101
CC(=O)N1CCCc2cc(S(=O)(=O)N(C)CC(=O)Nc3ccc(F)cc3Cl)ccc21 | 122 | 83 | / | 104
Cc1ccc(NC(=O)C2CC(=O)N=C(N)S2)cc1C (stereo unspecified) | 85 | 99 | 5 | /
Cc1cc(NC(=O)C(F)(F)C2(F)OC(F)(F)C(F)(F)C2(F)F)no1 (stereo unspecified) | 92 | 82 | -12 | /
O=C(CSC1=Nc2ccccc2N=C(c2ccc(F)cc2)C1)Nc1cc(F)ccc1F | 110 | 91 | / | 107
Cc1nn2c(-c3ccc(NC(=O)c4ccccc4Cl)cc3)nnc2c2ccccc12 | 117 | 87 | / | 104
CCOCCCNC(=O)c1[nH]c2cc(OC)ccc2c1Sc1ccccc1 | 118 | 97 | -26 | 105
COc1ccc(N2CCN(C(=O)CN3CCN(S(=O)(=O)c4ccc(C(C)(C)C)cc4)CC3)CC2)cc1 | 101 | 97 | 12 | /
O=C(NCc1ccc(Cl)cc1)C(=O)NCC(c1cccs1)S(=O)(=O)c1ccc(Cl)cc1 (stereo unspecified) | 95 | 87 | / | 99
Cc1ccccc1NC(=O)CSc1ncn[nH]1 | 98 | 89 | -4 | /
NC(=O)CSc1nc2c(c(=O)n1-c1ccccc1)C1=C(CCC1)C2 | 105 | 102 | -12 | /
CCOC(=O)C1CCN(C(=O)CCc2nnc3n(CC(C)C)c(=O)c4sccc4n23)CC1 | / | / | -24 | 93
COc1nc(-c2ccccc2)cc(-c2ccccc2)c1C#N | 75 | 74 | 4 | /
CC(C)(Oc1ccc(Cl)cc1)C(=O)Nc1ccc(-c2nc3ncccc3o2)cc1 | 91 | 91 | -2 | 97
CCCCN1C(=O)C(O)(CC(=O)c2ccc(C)cc2C)c2cc(Br)ccc21 (stereo unspecified) | 98 | 91 | 17 | 100
COc1ccc2oc(=Nc3ccc(C(=O)O)cc3)c(C(=O)NCc3ccccc3)cc2c1 | 85 | 31 | / | 101
CCCCNC(=O)CCCCCn1c(=O)[nH]c2ccccc2c1=O | 105 | 90 | / | 106
CN(c1cccc(NS(C)(=O)=O)c1)S(C)(=O)=O | 95 | 99 | 14 | 113
O=C(/C=N/O)NCCN1CCCCC1 | 119 | 88 | -14 | 93
Cc1cc(=O)n(C)c(=O)n1CCCN1CCCC1 | 92 | 87 | -16 | 96
CC(C)c1ccc(Nc2nn3c(=O)c4ccccc4nc3s2)cc1 | 95 | 82 | 38* | 98
N#Cc1ccc(C2C3=C(CCCC3=O)NC3=C2C(=O)CCC3)cc1 | 98 | 89 | -50 | 99
Cc1nc(S/C(=C/c2ccc(-c3ccc(Cl)cc3)o2)C(=O)O)n[nH]1 | 97 | 92 | -13 | /
Cc1cc2c(cc1S(=O)(=O)N1CCCC(C(=O)NCc3ccc(Cl)cc3)C1)OCC(=O)N2 (stereo unspecified) | / | / | -22 | 100
COc1cc(OC)c(C2CC(=O)Nc3ccc4ccccc4c32)cc1OC (stereo unspecified) | 104 | 81 | -21 | 108
COc1cc(C2NC(C(=O)O)CS2)ccc1OCc1ccccc1C (stereo unspecified) | / | / | 10 | 101
O=C(c1cc(-c2ccc3c(c2)OCO3)on1)N1CCCCC1 | 101 | 85 | -1 | 100
CC1(C(=O)NC2CCCC2)Cn2c(cc3ccsc32)C(=O)N1c1ccc(Cl)cc1 (stereo unspecified) | / | / | -14 | 112

Next section
SMILES | Sa growth 42C | Sa growth 42C second temp | HCMV NEC inh | GIV-Gai inh
COC(=O)c1c(NC(=O)Cc2coc3ccc(C)cc23)sc2c1CCC2 | 117 | 91 | -9 | 111
Cc1ccc(NC(=O)CNc2ccccc2)cc1 | 114 | 94 | -8 | /
O=C(c1ccco1)N1CCN(C(=O)C2CCCO2)CC1 (stereo unspecified) | 104 | 94 | -15 | 104
Cc1ccc(S(=O)(=O)c2cn(CC(=O)Nc3ccc4c(c3)OCO4)c3ccccc3c2=O)cc1 | 111 | 75 | 1 | 108
CCCSCCCNC(=O)c1ccc(-n2nnc3cccnc32)cc1 | / | / | -30 | 108
O=S(=O)(NCCS(=O)(=O)N1CCN(c2cccc(Cl)c2)CC1)c1ccc(F)cc1 | 101 | 88 | / | 105
CCCCSc1nn(CC(=O)OCC)c2nc3c(c(=O)n12)C(C)(C)Cc1ccccc1-3 | / | / | -14 | 106
Cc1nc2ccccc2nc1CSc1nncs1 | 100 | 90 | -34 | /
N#C/C(=C/c1ccc(-c2ccc(S(N)(=O)=O)cc2)o1)C(=O)Nc1cc(Cl)ccc1Cl | 98 | 102 | -15 | 75*
CC1CC(C)(C)NC(=S)N1CC(=O)N1CCN(c2ccc(F)cc2)CC1 (stereo unspecified) | 91 | 78 | -27 | 99
O=c1[nH]cnc2c1sc(=S)n2-c1ccccc1 | 104&96 | 87&81 | -40&-21 | 99&99
COC(=O)c1ccc(-n2c(C)cc(/C=C3/C(=O)NC(=O)N(c4ccc(OC)cc4)C3=O)c2C)cc1 | / | / | -4 | 108
Cc1oc(-c2cccc(Cl)c2)nc1CN1CCC(C(=O)NCCCN2CCCC2)CC1 | 101 | 90 | / | 100
CN(C)c1ccc(-c2nc(-c3cccs3)c(-c3cccs3)[nH]2)cc1 | 94 | 88 | -13 | 109
COc1cccc(NC(=O)NC(C)(C)C)c1 | 111 | 100 | -9 | 102
CCC(=O)Oc1c(Sc2ccc(C)cc2)c(C)nn1-c1ccccc1 | 108 | 77 | -15 | 100
CCCN(C(=O)[C@H]1[C@@H]2C[C@@H]3[C@H]1C(=O)O[C@@H]3C2)c1ccccc1F | 98 | 80 | -10 | 100
CN1CCN(Cc2c(O)ccc3cc(-c4ccccc4)c(=O)oc23)CC1 | 88 | 98 | / | 111
COc1ccccc1OC(C)C(=O)Oc1cccc(-n2cnnn2)c1 (stereo unspecified) | / | / | -1 | 108
O=C(CSc1nc2ccc(N3C(=O)c4ccc([N+](=O)[O-])cc4C3=O)cc2s1)NCC1CCCO1 (stereo unspecified) | / | / | -55 | 105
O=C(CSc1nc2ccccc2nc1Cc1ccccc1F)Nc1cccc(C(F)(F)F)c1 | 80 | 79 | -27 | 111
COc1ccc2c(C)cc3nnc(SCC(=O)N(C)Cc4ccco4)n3c2c1 | 99 | 79 | -12 | /
